A1 inh: caspase 3/7 activation in MEF A1-2A-BIM cells, primary screen, A1 inhibitor project, cell-based, luminescence, HTS | Caspase-Glo 3/7 luminescence, 3 h; percent of clofoctol response, vehicle zero | AID 2462, 2010 | hit rate 0.066% among 330,000 | caspase activation, % (no concentration beside the values);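 active = over half of replicate activation scores above 10%, or exactly half above 10 with the replicate mean above 10; inconclusive = replicate mean below 10 yet half the replicates above 10; inactive = over half of replicates below 10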;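 also: wells of about 30 µL received 50 nL stock; many hits fall short of the cut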
RanGTP-Imp inh: inhibitors of RanGTP-importin-beta interaction, primary screen, biochemical, FRET, CFP-Ran, YFP-importin-beta, homogeneous. inhibition, % (concentration not given with the values). cell-free CFP-Ran/YFP-importin-beta FRET ratio. hit rate 1.1% among 300,000. AID 2216, 2009;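 active = most replicates above 15%; inconclusive = exactly half above 15%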;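 also: 0% = DMSO wells and 100% = Ran loaded with GDP instead of GTP; wells of about 40 µL received 100 nL stock; the first replicate is given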
Calb FLC: C. albicans growth inhibition with fluconazole, primary screen, CaCi-2 strain, Alamar Blue fluorescence. C. albicans CaCi-2 (fluconazole-resistant clinical isolate) + fluconazole, 48 h. growth inhibition, % (test concentration not listed). hit rate 0.57% among 300,000. AID 1979, 2009;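 active = most replicates above 75%; inconclusive = exactly half above 75%; inactive = most below 75%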;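 also: all wells also contain fluconazole at 8 µg/ml as a sub-toxic cotreatment; 0% = median of DMSO wells and 100% = median of geldanamycin control wells; wells of about 8 µL received 7.5 nL stock; the first replicate is given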
Vif TR-FRET: inhibitors of Vif binding to APOBEC3G peptide, primary screen, biochemical, TR-FRET, GST-Vif 1-94, biotin-A3G peptide, dose response retest (AID 1117319) | TR-FRET GST-Vif / biotin-A3G peptide binding; higher % means a stronger effect; test concentration not given here; strong numbers were not always called active | inhibition, %; hits with a dose series show IC50 in µM | Virion infectivity factor (Human immunodeficiency virus type 1 group M subtype B (isolate … | hit rate 0.57% among 260,000;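 active = above the screen mean plus three standard deviations and confirmed in dose response; inconclusive = results disagree or hit not tested in dose response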;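 also: Vif residues 1-94 fused to GST binding biotinylated APOBEC3G peptide 110-148; 0% = full assay without inhibitor and 100% = GST in place of GST-Vif; retest series ran down from 100 µM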
MLL AF4-AF9 inh: inhibitors of AF4 peptide binding to AF9, primary screen, biochemical, AlphaScreen, biotin-AF4 peptide, FLAG-AF9, single point | Protein AF-9 (Homo sapiens), P42568 | inhibition, % at 10 µM | hit rate 0.47% among 350,000;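 active = every replicate reaching a set inhibition limit, whatever the replicate mean, cut at about 25% in these data; inconclusive = mean inhibition reaches that limit but some replicates miss it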;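 also: 0% = plate neutral control median and 100% = total signal loss; the record names both 10 and 1 µM as test concentration; the first replicate is given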
T cruzi repl: inhibitors of intracellular T. cruzi growth, primary screen, luminescence, NIH3T3 host cells; T. cruzi beta-gal in NIH3T3, 90 h; inhibition, % (concentration not given with the values); hit rate 1.4% among 300,000; AID 1885, 2009;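 active = mean inhibition across valid replicates above about 55%, limit read from the data; inconclusive = mean below that limit but half or more replicates reach it; inactive = mean below it, under half of replicates reach it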;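 also: signal also drops with host cell toxicity which is not excluded here; 0% = plate median of DMSO wells and 100% = zero luminescence signal; higher percent means less beta-gal luminescence so fewer parasites; stock transfer was 50 nL into about 50 µL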
Beta cell apopt: inhibitors of cytokine-induced beta cell apoptosis, primary screen, luminescence; INS-1E cytokine-induced death, ATP luminescence, 48 h; percent of positive-control rescue, neutral wells zero; protection from apoptosis, % (concentration not given with the values); hit rate 0.8% among 300,000; AID 435005, 2010;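 active = all replicates at 75% or more, or half of them and the mean; inconclusive = half reach 75% but not the mean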;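 also: 0% = cytokine-treated negative control wells and 100% = positive control rescue; higher means more ATP so stronger rescue from cytokine killing; wells of about 40 µL received 100 nL stock; the first replicate is given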
LANA-H2B inh: blockers of LANA interaction with H2A/H2B – biochemical, FP readout, HTS, primary screen; Protein LANA1 (Human herpesvirus 8 type P (isolate GK18)), Q9QR71; cell-free LANA-H2A/H2B peptide, fluorescence polarization; inhibition, % (concentration not given with the values); hit rate 0.6% among 320,000; AID 2629, 2010; in the data active = inhibition mostly above about 10%, no sharp cut-off; inactive = mostly below about 6.7%;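 also: stock transfer was 7.5 nL into about 10 µL; 0% = median of vehicle wells and 100% = median of positive control wells; one replicate is shown; the record names a cut of 25% in any replicate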
Target sequence (Q9QR71 whole entry, looked up): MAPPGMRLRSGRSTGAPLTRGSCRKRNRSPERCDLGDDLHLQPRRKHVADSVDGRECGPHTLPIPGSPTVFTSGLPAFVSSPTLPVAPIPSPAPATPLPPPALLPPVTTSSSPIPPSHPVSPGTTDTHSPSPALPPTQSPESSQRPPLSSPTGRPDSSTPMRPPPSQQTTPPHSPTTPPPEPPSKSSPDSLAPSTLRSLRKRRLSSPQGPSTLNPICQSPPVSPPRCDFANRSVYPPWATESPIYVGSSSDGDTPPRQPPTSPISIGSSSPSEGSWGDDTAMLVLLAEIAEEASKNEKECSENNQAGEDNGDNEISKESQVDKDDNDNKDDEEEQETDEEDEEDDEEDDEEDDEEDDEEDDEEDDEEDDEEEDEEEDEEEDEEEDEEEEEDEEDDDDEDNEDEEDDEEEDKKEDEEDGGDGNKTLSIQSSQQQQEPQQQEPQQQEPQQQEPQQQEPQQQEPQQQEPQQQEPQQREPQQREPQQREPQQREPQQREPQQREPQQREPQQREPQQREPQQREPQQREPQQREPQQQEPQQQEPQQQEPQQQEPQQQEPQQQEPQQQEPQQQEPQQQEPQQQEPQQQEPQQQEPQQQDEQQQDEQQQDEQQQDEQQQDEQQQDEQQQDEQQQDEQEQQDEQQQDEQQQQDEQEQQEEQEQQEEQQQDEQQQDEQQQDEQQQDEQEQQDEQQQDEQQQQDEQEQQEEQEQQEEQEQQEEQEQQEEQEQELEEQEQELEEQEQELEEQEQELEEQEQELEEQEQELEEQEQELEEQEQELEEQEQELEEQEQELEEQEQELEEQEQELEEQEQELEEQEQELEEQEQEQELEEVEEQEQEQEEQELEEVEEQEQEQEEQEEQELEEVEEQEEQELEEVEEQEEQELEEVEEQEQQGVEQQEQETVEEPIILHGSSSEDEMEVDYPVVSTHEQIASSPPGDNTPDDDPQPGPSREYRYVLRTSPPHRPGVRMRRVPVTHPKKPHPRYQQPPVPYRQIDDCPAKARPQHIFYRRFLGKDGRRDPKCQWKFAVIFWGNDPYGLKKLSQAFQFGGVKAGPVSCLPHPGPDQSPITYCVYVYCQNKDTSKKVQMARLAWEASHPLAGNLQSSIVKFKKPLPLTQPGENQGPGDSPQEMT
* marks the source's active call; other numbers are inactive results; u = inconclusive; x = no result given; & = joins results of further samples.

entry	structure	Beta cell apopt	T cruzi repl	Calb FLC	LANA-H2B inh	Vif TR-FRET	RanGTP-Imp inh	MLL AF4-AF9 inh	A1 inh
1	CCc1nnc(NC(=O)c2cccc(S(=O)(=O)N(C)c3ccccc3)c2)s1	-1	4	12	4.3	1%	2.0	x	-0.1
2	Cc1ccnc(NC(=O)c2cccc3ccccc23)c1	4	-3	-11	-0.2	4%	0.0	-2.9	-2.3
3	COc1ccc(C2C(C#N)=C(N)Oc3cc(C)[nH]c(=O)c32)cc1OC (stereo not given)	-5	-2	-1	1.4	7%	1.2	-2.3	-0.4
4	O=C(CSc1nnc(Cc2ccccc2)o1)c1ccc(F)cc1	1	3	-11	3.8	-1%	-0.7	-1.0	-0.3
5	Cc1ccc(-c2noc(CCC(=O)Nc3ccccc3N3CCN(C)CC3)n2)cc1	-1	23	-7	1.2	1%&-5%	-0.4	x	-1.0
6	COc1ccc(OC)c(/C=N\NC(=O)c2ccc(=O)n(C)c2)c1	-2	-10	21	3.7	1%	3.6	-4.2	-1.5
7	Cc1ccc(C)c(OCC(=O)NCC(C)(C)N2CCOCC2)c1	10	x	x	-12	4%	x	0.3	-0.6
8	Cc1ccccc1C(=O)Nc1ccccc1-n1cccc1	2	-3	10	-5.1	-5%	9.6	2.3	0.7
9	Cc1c(C(=O)NC(=S)Nc2ccc(NC(=O)c3cccs3)cc2)oc2ccccc12	11	2	1	-2.9	x	-2.8	14	0.4
10	CN(Cc1cccc(C(F)(F)F)c1)C(=O)C1CCC(=O)N(CC2CCCCC2)C1 (stereo not given)	1	13	25	-1.4	x	0.2	2.6	-0.6
11	CCOC(=O)c1cc(OC(=O)c2ccccc2OC)n(-c2ccccc2)n1	-6	5	30	-1.4	0%	-2.6	x	0.3
12	O=C(Cn1cnc2c(nnn2Cc2ccc(Cl)cc2)c1=O)N1CCCc2ccccc21	6	19	5	6.2	7%	3.0	-48	0.1
13	COc1ccc(S(=O)(=O)N2CCCCC2)cc1	-7	-21	9	1.4	-6%	-0.6	x	-0.3
14	O=C(Oc1ccc2ccc(=O)oc2c1)N1CCOCC1	-3	-3	1	-0.3	u	3.9	x	-1.1
15	C(=N\N(c1ccccc1)c1ccccc1)/c1ccccn1	1	20	-1	-0.9	x	2.2	14	0.2
16	O=C(CN1CCN(c2ccccc2O)CC1)NC(=O)NC1CCCC1	-3	-3	31	-13	5%	-1.1	-0.4	0.9
17	Cc1cc(C)nc(SCC(=O)c2ccc(O)cc2O)n1	0	-12	6	1.7	u	u	-0.9	-0.7
18	Cc1cccc(C(=O)NNC(=O)c2ccc(F)cc2)c1	-2	7	6	-2.1	x	-0.4	-1.4	0.8
19	CC1Cc2ccccc2N1S(=O)(=O)c1cccc(C(=O)NCc2ccco2)c1 (stereo not given)	-5	x	x	2.7	12%	x	1.2	-0.9
20	CCN(CC)CCCNC(=O)c1ccc(CS(=O)(=O)c2ccccc2OC)o1	-2	-2	1	-1.2	3%	-3.7	-1.4	-2.8
21	COc1ccc(NC(=O)CC2(CC(=O)N3CCOCC3)CCCC2)cc1Cl	0	x	x	1.8	x	x	-0.3	0.0
22	O=C(NCc1cccs1)c1cccn2c(=O)c3sccc3nc12	7	15	0	-2.5	10%	-0.3	-13	0.6
23	Cc1ccc(-c2cc(-c3ccccc3)c(C#N)c(N)n2)o1	-14	1	38	-0.1	u	-1.1	x	1.5
24	CCCCCc1cc(=O)oc2c(C(CCN3CCCC3)c3ccc(N(C)C)cc3)c(OC)cc(OC)c12 (stereo not given)	8	53	-18	-1.2	4%	9.9	57*	0.3
25	COc1cc(C(=O)NCCCOC(C)C)ccc1OC1CCN(C(C)=O)CC1	28	-12	1	-1.0	x	-2.8	-3.4	0.5
26	CCOC(=O)C1(CCCc2ccccc2)CCN(Cc2cnn(C)c2)CC1	6	28	-10	0.5	8%	2.7	4.8	0.0
27	CCC(C)N1C(=O)N(C)C2NC(=O)NC21 (stereo not given)	-7	-10	12	1.3	4%	0.1	-2.2	0.8
28	COc1ccc(NS(=O)(=O)c2cc(OC)ccc2OC)cc1	-3	11	-4	1.9	x	8.1	-1.2	-1.3
29	CCN(CC)c1ccc(N=Nc2nn(C)c(C)c2[N+](=O)[O-])cc1	9	-14	23	-0.2	-14%	1.1	-3.1	-7.1
30	CN(C)CCSc1nnc2sc3ccccc3n12	-4	4	5	-9.0	-6%	7.0	x	0.3
31	CCCCn1c(SCC(=O)c2ccc(OC)c(OC)c2)nc2cc(S(N)(=O)=O)ccc21	4	10	-4	1.7	12%	-0.3	x	2.1
32	COc1ccc(NC(=O)Cn2ccc(C(F)(F)F)n2)cc1S(=O)(=O)N1CCOCC1	-1	x	x	-1.2	23%	x	-2.2	-1.1
33	CCOC(=O)C1(Cc2cccc(OC)c2)CCN(C(C)COC)CC1 (stereo not given)	2	-2	-35	18	6%	7.8	x	-0.2
34	NC(=O)c1oc2ccccc2c1NC(=O)c1ccc(F)cc1	-4	-12	13	-2.2	0%	7.2	9.8	-0.2
35	COc1ccccc1Nc1nc(Cl)nc(NC(C)(C)C)n1	2	15	8	-5.1	-16%	2.0	1.6	-0.2
36	COc1cccc(-c2noc(C3CCCN(S(=O)(=O)c4cccc(Cl)c4C)C3)n2)c1 (stereo not given)	-1	19	-6	4.0	-1%	-0.5	x	0.9
37	Cc1ccc(C)[n+](CC(=O)c2ccc(-c3ccccc3)cc2)c1	43	24	9	-1.1	-7%	-2.5	0.4	-0.4
38	COCC(=O)N1CCc2ccc(NC(=O)c3ccc(C(F)(F)F)cc3)cc2C1	3	-5	-2	1.7	x	-1.9	-16	1.0
39	CCc1ccc(C(=O)CSC2=C(C#N)C(c3ccco3)C(C(C)=O)=C(C)N2)cc1 (stereo not given)	110*	47	21	-4.8	u	-6.9	x	-0.1
40	CCn1c(O)c(C=NCc2cccs2)c(=O)n(CC)c1=S	-34	-11	-2	1.4	9%	-5.6	x	0.8
41	O=C(NCc1n[nH]c(=S)n1-c1cccc(Cl)c1)c1ccc(S(=O)(=O)N2CCCC2)cc1	4	0	-33	-4.5	2%	-0.4	x	-2.9
42	COc1ccc(C(=O)Nc2sc(C)c(-c3ccccc3)c2C#N)cc1OC	11	32	15	2.6	20%	79*	x	-0.7
43	CCOC(=O)C1(CC2CC2)CCN(Cc2ccc3cccc(F)c3n2)CC1	9	36	-12	-1.3	-4%	0.2	-7.6	-0.3
44	COc1ccc(NS(=O)(=O)c2cccc(NC(=O)NC3CCCCC3)c2)cc1	2	-8	6	-2.5	x	-0.3	x	0.0
45	CCOC(=O)Cc1nn(Cc2nc(-c3ccc(C#N)cc3)cs2)c(=O)c2ccccc12	x	14	-1	-9.1	-77%	0.8	-2.5	1.5
46	CC1CCc2onc(C(=O)O)c2C1 (stereo not given)	2	1	8	0.6	4%	-2.1	-0.4	0.2
47	CC(C)CCN1C(=O)c2ccc(C(=O)Nc3cccc(S(N)(=O)=O)c3)cc2C1=O	-10	1	6	-3.1	x	-1.7	x	-0.3
48	CCC1Sc2ccccc2N(CC(=O)NCCC2=CCCCC2)C1=O (stereo not given)	-3	19	-1	1.8	-3%	6.5	x	-0.4
49	Cc1n[nH]c(=O)n1-c1ccc(C(C)C)cc1	-8	-2	-3	5.2	-7%	-0.1	1.5	0.6
50	CCOc1ccc(-n2c([S-])c(C(=O)Nc3ccc(S(=O)(=O)N4CCOCC4)cc3)[n+]3cc(C(N)=O)ccc23)cc1	-1	5	-3	0.7	-131%	-2.7	2.6	-0.2
51	COc1cccc(NC(=O)CCSc2nnc3scc(-c4ccccc4)n23)c1	-7	14	u	-0.1	1%	24	x	1.3
52	CCn1c(SCC(=O)N2CCN(c3ccccc3)CC2)nc2c([nH]c3ccccc32)c1=O	19	-8	-11	2.4	0%	-1.8	0.8	1.3
53	O=C(CC(C(=O)N1CCc2ccccc21)n1ccnc1)NCC1CCCO1 (stereo not given)	-3	-9	-6	-7.4	1%	u	x	1.0
54	C/C(=N\Nc1ccccc1)c1cc2ccccc2oc1=O	0	-5	28	3.3	x	-1.0	-1.1	0.0
55	COc1ccc(CC(=O)NCCc2ccc(S(N)(=O)=O)cc2)cc1	2	-19	-13	-3.6	23%	-3.8	x	0.1
56	NC(=S)N/N=C/c1ccc(-c2ccc(Cl)c(Cl)c2)o1	-6	60*	1	0.9	3%	1.7	x	-0.2
57	COc1cc(C(=O)NCCc2cc3c(OC)ccc(OC)c3[nH]c2=O)cc(OC)c1OC	4	15	19	-3.6	3%	1.7	1.0	0.8
58	COC(=O)c1ccc2c(=O)n(CCN3CCOCC3)c(SCC(=O)C(C)(C)C)nc2c1	-1	8	-17	-4.1	3%	19*	x	1.3
59	CCOc1ccc(Nc2oc(-c3ccco3)nc2C#N)cc1	2	11	-1	3.4	26%	7.0	x	0.0
60	CCOC(=O)c1c(C)n(C)c2c1cc(OC(C)=O)c1ccccc12	-6	-5	8	-0.9	-1%	1.2	-1.2	-0.2

Marked active in MLL AF4-AF9 inh, among the entries above:
item	mol	LANA-H2B inh	Vif TR-FRET	RanGTP-Imp inh	MLL AF4-AF9 inh	A1 inh
24	CCCCCc1cc(=O)oc2c(C(CCN3CCCC3)c3ccc(N(C)C)cc3)c(OC)cc(OC)c12 (stereo not given)	-1.2	4%	9.9	57*	0.3

In the list so far, these contain a tert-butyl group.
entry	structure	Beta cell apopt	T cruzi repl	Calb FLC	LANA-H2B inh	Vif TR-FRET	RanGTP-Imp inh	MLL AF4-AF9 inh	A1 inh
35	COc1ccccc1Nc1nc(Cl)nc(NC(C)(C)C)n1	2	15	8	-5.1	-16%	2.0	1.6	-0.2
58	COC(=O)c1ccc2c(=O)n(CCN3CCOCC3)c(SCC(=O)C(C)(C)C)nc2c1	-1	8	-17	-4.1	3%	19*	x	1.3

Next entries follow.
entry	structure	Beta cell apopt	T cruzi repl	Calb FLC	LANA-H2B inh	Vif TR-FRET	RanGTP-Imp inh	MLL AF4-AF9 inh	A1 inh
61	COc1ccc(NC(=O)c2ccc(NS(=O)(=O)c3c(C)noc3C)cc2)cc1OC	-2	-2	-1	-1.3	u	-2.2	x	-1.0
62	CCc1cccc(NS(=O)(=O)c2cccc3cccnc23)c1	-7	16	5	-0.5	x	-0.6	-0.8	1.2
63	CC(=O)Nc1ccc(S(=O)(=O)NCc2nc(-c3ccccc3)no2)cc1	-2	-2	-7	1.9	x	-1.8	-3.0	0.8
64	CC(=O)c1ccc(OC(C)C)c(CSC(=N)N)c1	-2	-15	2	-6.5	5%	4.4	0.0	-0.2
65	Cc1cccc(C(C)(C)C)c1OCCN1CCCC1	-6	4	0	-2.4	29%	2.0	9.8	0.3

Source: PubChem
